Compound activity deposited in PubChem by several laboratories.
Rce1 inhib: yeast Ras-converting enzyme inhibition; Q03530; yeast membranes, quenched prenylated peptide cleavage fluorescence; AID 2563; calls only; actives 0.27% (n = 290,000);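 active = fall in fluorescence gain of 50% or more versus controls, with final raw signal at or below 3038400; inconclusive = same 50% fall but final raw signal above 3038400; inactive = fall in fluorescence gain under 50%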;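 also: plate controls were neutral control wells for no effect and wells lacking membranes for full effect; tested at 10 µM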
Target sequence (Q03530 whole entry, looked up): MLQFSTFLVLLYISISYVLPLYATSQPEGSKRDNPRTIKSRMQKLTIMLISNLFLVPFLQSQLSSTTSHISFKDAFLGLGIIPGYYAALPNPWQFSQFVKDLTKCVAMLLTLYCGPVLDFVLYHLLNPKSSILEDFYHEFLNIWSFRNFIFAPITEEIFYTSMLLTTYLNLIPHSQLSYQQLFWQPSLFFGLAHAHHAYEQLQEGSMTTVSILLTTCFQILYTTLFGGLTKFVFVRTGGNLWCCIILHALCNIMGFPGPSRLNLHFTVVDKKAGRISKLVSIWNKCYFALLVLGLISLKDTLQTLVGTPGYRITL
MT1-MMP act inh: inhibitors of human MT1-MMP activation | actives 0.061% (n = 360,000) | HT1080 RFP-PRO-GFP cells, GFP/RFP ratio fluorescence, overnight; percent of plate control window, DMSO zero | GFP/RFP ratio change, % at 20 µM;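 active = GFP/RFP ratio change of at least 30% with cell ATP level not reduced by more than half and red fluorescence within 50% of control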; also: strong numbers were not always called active
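Test system: HT1080 cells expressing an RFP-PRO-GFP fluorescent reporter construct / Compound dosing: single-point 20 µM compound, 1% DMSO / Schedule: cells overnight before dosing, compound overnight, 37 °C, 5% CO2 / Evaluation: GFP/RFP fluorescence ratio / Control set: DMSO and RFP-L50D-GFP cell wells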
eIF4H FP inh: inhibitors of RNA binding by human eIF4H; Q15056; eIF4H fluorescence polarization binding assay; inhibition, % at 35 µM; actives 0.94% (n = 290,000); AID 2012;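 active = 50% or more with normal probe brightness, or confirmed in later tests; inconclusive = above 50% with abnormal brightness, or retests that disagree; inactive = below 50% or failed in later tests; about a fifth of its hits are not listed in these tables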;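 also: calls also rest on retests at 20 µM and on dose response follow-up; 0% = protein and probe with vehicle and 100% = probe without protein; strong numbers were not always called active; many hits fall short of the cut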
CSC inhib: cancer stem cell inhibition. cancer stem cell-like cells viability, luminescence. inhibition, % at 7.5 µM. actives 1.1% (n = 300,000). AID 2717;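 active = mean at 75% or more and at least half the replicates too; inconclusive = mean and replicates disagree; tested in HMLE shEcad cells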;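 also: 0% = median of negative and 100% = median of positive control wells; the first replicate is given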
Env fusion inh: inhibitors of HIV Env-mediated cell fusion; HeLa-JRFL Env/CEM21 cell fusion, luciferase; actives 1.1% (n = 360,000); AID 651610; inhibition, % at 12.3 µM;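 active = mean replicate inhibition score of at least 50 and every replicate individually at or above 50; inconclusive = only one of the two criteria met; inactive = mean below 50 and not all replicates reaching 50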;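 also: 0% = plate neutral controls and 100% = maraviroc near 300 nM; one replicate is shown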
UUG fidelity: alters start codon recognition fidelity in yeast. actives 0.13% (n = 350,000). S. cerevisiae UUG-firefly luciferase reporter, luminescence/redox ratio. activity score, % at 18.7 µM;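 active = replicate mean at a twofold rise or more, about +100% in these data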;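 also: firefly luciferase made from a UUG start codon reports start codon fidelity; reporter light over untreated wells divided by growth signal over untreated wells; some hits fall short of that in this replicate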
PABP FP inh: blocks human PABP binding to poly(A) RNA; P11940; fluorescence polarization; inhibition, % at 35 µM; actives 1% (n = 290,000);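 active = 50% or more with normal probe brightness, or confirmed in later tests; inconclusive = above 50% with abnormal brightness, or retests that disagree; inactive = below 50% or failed in later tests; about a fifth of its hits are not listed in these tables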;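 also: calls also rest on retests at 20 µM and on dose response follow-up; controls were probe without protein and protein plus probe with vehicle; some compounds called inactive have numbers as strong as hits; many hits fall short of the cut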
Target sequence (P11940 whole entry, looked up): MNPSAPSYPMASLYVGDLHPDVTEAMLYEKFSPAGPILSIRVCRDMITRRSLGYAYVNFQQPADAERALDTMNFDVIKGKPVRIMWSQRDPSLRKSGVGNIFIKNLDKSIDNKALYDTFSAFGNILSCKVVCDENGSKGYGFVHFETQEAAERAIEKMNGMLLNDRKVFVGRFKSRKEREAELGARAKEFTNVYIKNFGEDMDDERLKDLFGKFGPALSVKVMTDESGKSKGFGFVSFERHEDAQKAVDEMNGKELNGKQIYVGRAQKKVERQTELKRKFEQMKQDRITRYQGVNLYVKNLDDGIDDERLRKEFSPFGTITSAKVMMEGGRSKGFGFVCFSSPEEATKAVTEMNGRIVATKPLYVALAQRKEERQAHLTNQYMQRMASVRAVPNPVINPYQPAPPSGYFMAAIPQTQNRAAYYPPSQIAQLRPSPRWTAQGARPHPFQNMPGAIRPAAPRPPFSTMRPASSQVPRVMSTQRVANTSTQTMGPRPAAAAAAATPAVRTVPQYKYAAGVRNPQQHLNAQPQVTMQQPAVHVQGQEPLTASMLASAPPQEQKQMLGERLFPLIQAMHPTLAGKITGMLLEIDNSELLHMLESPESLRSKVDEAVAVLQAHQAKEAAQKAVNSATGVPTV
eIF4H FP inh retest: recorded beside eIF4H FP inh, whose call it bears; inhibition, %; compound at 20 µM; confirmation average;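 mean of two retest wells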
PABP FP inh retest: further read-out of PABP FP inh, marked with its call; inhibition, %; compound at 20 µM; confirmation repeats;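 mean of two retest wells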
MT1-MMP act inh RFP: second read-out of MT1-MMP act inh, no call of its own (marks repeat the call); RFP signal change, %; measured here: RFP expression control read;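 0 = vehicle wells; hits needed this value within 50% of zero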
* marks the source's active call; other numbers are inactive results; i = inactive; u = inconclusive; x = not tested or not shown. An excerpt; rates above refer to the full screens.

SMILES | Rce1 inhib | MT1-MMP act inh | MT1-MMP act inh RFP | eIF4H FP inh | CSC inhib | Env fusion inh | UUG fidelity | PABP FP inh | others
CCOC(=O)c1c(NC(=O)COc2ccccc2C#N)sc2c1CC(C)(C)NC2(C)C | i | -1 | -1 | -12 | -2 | x | 2 | -3
COc1cc(OC)c(/C=C2\SC(=O)N(CC(=O)Nc3ccccc3F)C2=O)c(OC)c1 | i | -1 | -2 | -4 | -2 | -23 | -7 | -6
Cc1cc2cc(CNS(=O)(=O)N(C)C)ccc2[nH]1 | i | 11 | 8 | 15 | -1 | 0 | -3 | -3
O=C(CN(C(=O)c1csnn1)c1cccc(Cl)c1)NC1CCCC1 | i | 2 | 5 | 2 | -8 | 9 | -6 | 5
CCOC(=O)c1c(NC(=O)Nc2ccc(C)cc2)sc2c1CCN(C)C2 | i | 0 | -3 | -15 | -3 | 8 | 3 | 2
Nc1nc2ccccc2n1S(=O)(=O)c1ccc([N+](=O)[O-])cc1 | x | 3 | -3 | x | x | -18 | -5 | x
Cc1ccccc1NC1=NCC(c2ccc([N+](=O)[O-])cc2)S1 (stereo unspecified) | i | -24 | -19 | 11 | 11 | -99 | x | 63 | eIF4H FP inh retest=-9;PABP FP inh retest=8
Cc1ccc(C(=O)Nc2ccc([N+](=O)[O-])cn2)o1 | i | -1 | 0 | 47 | 5 | -6 | -6 | 10
CCOc1ccc(C(=O)Oc2ccc(NC(C)=O)cc2)cc1 | i | x | x | 6 | -8 | 18 | x | 4
O=C(CSc1nnc(-c2ccncc2)n1-c1ccccc1)N1CCN(c2ccc(Cl)cc2)CC1 | i | -1 | -18 | 1 | 54 | 31 | -1 | 25
CCOc1ccc(NC(=O)CSc2nc3ccccc3c(=O)n2CCNC(C)=O)cc1 | i | 5 | 2 | -5 | 10 | -38 | -1 | 9
O=C(CN1C(=O)c2ccccc2C1=O)N1CCN(C2c3ccccc3-c3ccccc32)CC1 | i | 5 | 4 | -13 | -4 | 17 | x | -7
Cc1ccc(N=Cc2sc(O)c3ccccc23)cc1 | i | -89 | 5 | u | 6 | -305 | 8 | 4
COc1ccc(NC(=O)CC2SC(N3CCCC3)=NC2=O)cc1Cl (stereo unspecified) | x | 1 | 3 | x | -7 | x | -3 | x
COc1ccc(S(=O)(=O)N2CCN(CC(O)COc3ccc(CC#N)cc3)CC2)cc1OC (stereo unspecified) | i | 4 | 2 | 9 | -8 | 8 | -18 | -5
O=C(Nc1ccccc1)N1CCN(Cc2ccc(Cl)cc2)CC1 | i | 1 | 0 | 3 | -19 | 7 | x | -1
Cc1cn(C2CCCCC2)c(=O)[nH]c1=O | x | -2 | 4 | x | x | 19 | -12 | x
OCC[C@@H]1C[C@H](O)[C@@H](O)[C@@]2(Cc3ccccc3CCO2)O1 | i | 0 | 0 | -6 | 3 | 1 | -20 | -7
Cc1ccc(C(=O)OCC(=O)Nc2ccc(C)c(S(=O)(=O)N3CCCCC3)c2)c(O)c1 | x | 6 | -3 | x | x | 7 | -25 | x
COc1ccc2nc(N3C(=O)CC(Cc4ccc(C)cc4)C3=O)sc2c1 (stereo unspecified) | i | -2 | 1 | -7 | -15 | -10 | x | 3
COc1ccc(NC(=O)C2CCN(S(C)(=O)=O)CC2)cc1Cl | i | 7 | 1 | -6 | -13 | x | x | -1
Cc1ccc(NC(=S)NC(=O)C2CCCC2)c(Br)c1 | x | -3 | -2 | x | 5 | -204 | -50 | x
CN(C)/C=C1/C(=O)N(c2ccc([N+](=O)[O-])cc2)N=C1c1ccccc1 | i | x | x | -3 | 22 | -25 | x | -2
COc1ccccc1N1CCN(C(=O)c2c(C)noc2C)CC1 | x | -2 | 1 | -2 | -13 | 6 | x | -1
O=C(COC(=O)c1ccccc1O)NC(=O)c1ccc(OC(F)F)cc1 | x | 3 | 6 | x | -1 | x | -11 | x
COc1ccc(CCNC(=O)CSc2nnc(-c3ccccc3)o2)cc1OC | i | 4 | 2 | -5 | -3 | -46 | -25 | 6
CCOCCCNC(=O)c1ccc(CS(=O)(=O)Cc2ccccc2F)o1 | i | 1 | -3 | -1 | -7 | -9 | -7 | -7
CCc1ccccc1NC(=O)c1cc(-c2ccc(F)cc2)on1 | i | -1 | -1 | -3 | -8 | -20 | -6 | 6
COC(=O)c1sccc1NC(=O)c1c(C)cc(=O)oc1C | i | 6 | 3 | 4 | -11 | x | -17 | -4
O=C(NCCc1ccccc1)Nc1nnc([C@H]2C[C@H](O)[C@@H](CO)O2)s1 | x | 3 | 0 | x | x | 2 | -8 | x
CCOc1ccc(-n2c(SCC(=O)Nc3cc(C)on3)nc3c(c2=O)SCC3)cc1 | i | -4 | -4 | -5 | -25 | 20 | -8 | 6
CCCCOc1ccc(Cn2c(=O)oc3ccccc32)cc1 | i | -1 | -1 | 3 | 2 | 3 | -2 | 5
CC(OC(=O)c1cccc(N(C)C)c1)C(=O)N1CCc2ccccc2C1 (stereo unspecified) | x | 0 | -2 | x | -2 | -6 | x | x
O=C(c1ccco1)N1CCN(C(=O)C2CCN(S(=O)(=O)c3cccc4nsnc34)CC2)CC1 | i | -1 | -3 | x | -5 | -20 | -5 | x
COc1ccc(CNC(=O)COC(=O)c2cccnc2Nc2cccc(C(F)(F)F)c2)cc1 | i | -4 | -5 | 2 | -16 | -22 | -13 | -6
CC1CCN(c2ccc(C(=O)NCc3ccco3)cc2[N+](=O)[O-])CC1 | i | 4 | -2 | 5 | 5 | -2 | -3 | 5

Overlap with the part before: 4 compounds; new compounds follow.
SMILES | Rce1 inhib | MT1-MMP act inh | MT1-MMP act inh RFP | eIF4H FP inh | CSC inhib | Env fusion inh | UUG fidelity | PABP FP inh | others
CC(OC(=O)c1cccc(N(C)C)c1)C(=O)N1CCc2ccccc2C1 (stereo unspecified) | x | 0 | -2 | x | -2 | -6 | x | x
O=C(c1ccco1)N1CCN(C(=O)C2CCN(S(=O)(=O)c3cccc4nsnc34)CC2)CC1 | i | -1 | -3 | x | -5 | -20 | -5 | x
COc1ccc(CNC(=O)COC(=O)c2cccnc2Nc2cccc(C(F)(F)F)c2)cc1 | i | -4 | -5 | 2 | -16 | -22 | -13 | -6
CC1CCN(c2ccc(C(=O)NCc3ccco3)cc2[N+](=O)[O-])CC1 | i | 4 | -2 | 5 | 5 | -2 | -3 | 5
O=C(Nc1cnc2ccccc2c1)c1ccncc1 | i | 2 | 4 | -10 | 1 | -6 | -29 | -4
COc1ccccc1NC(=O)Cn1nnc(C(=O)NCc2ccc3c(c2)OCO3)c1N | i | 2 | 0 | 0 | 3 | -2 | -7 | 7
CC1CCCN(C2=C(NS(=O)(=O)c3ccc(Cl)cc3)C(=O)c3ccccc3C2=O)C1 (stereo unspecified) | i | 16 | 2 | 2 | x | 8 | x | 0
CC1CCN(C(c2cc3cc4c(cc3[nH]c2=O)OCO4)c2nnnn2CC2CCCO2)CC1 (stereo unspecified) | i | 7 | 10 | 0 | -4 | x | -6 | -7
O=C(COc1ccc(Cl)cc1)Nc1ccc2c(c1)C(=O)NC2=O | i | 2 | 4 | -4 | -7 | 2 | -21 | -2
CCOc1cc(CO)cc(Br)c1OCC(=O)O | i | 1 | 6 | x | 3 | x | x | x
CC1CCN(c2ccc(NC(=O)c3cccnc3)cc2)CC1 | i | -3 | 3 | 1 | -13 | -68 | -18 | -6
CCCc1cc(C(=O)N2CCC(n3nccc3NC(=O)c3ccc(OC)cc3)CC2)no1 | i | 1 | 4 | -4 | -1 | 11 | 7 | -4
Nc1ncnc(N)c1N=Nc1ccccc1 | i | -3 | -7 | -6 | 24 | 9 | -8 | 1
Cc1cccc(C)c1NC(=O)Nc1nnc([C@@H]2C[C@H](O)[C@@H](CO)O2)s1 | x | 2 | 4 | x | x | 2 | -9 | x
c1nc(NCc2ccc3c(c2)OCO3)c2cc(-c3ccoc3)ccc2n1 | x | -9 | -14 | x | -5 | 35 | 7 | x
Cc1ccc(S(=O)(=O)N2CCc3ccccc3C2)cc1 | i | -4 | -4 | 5 | 4 | 24 | -18 | 6
Cc1c(NC2=NC(C)(C)Cc3ccccc32)c(=O)n(-c2ccccc2)n1C | x | -2 | 5 | 3 | -8 | x | -15 | 23
Cc1cc(C)cc(N(CC(=O)NCc2ccccc2Cl)S(=O)(=O)c2c(C)[nH]c(=O)[nH]c2=O)c1 | i | -1 | 3 | -13 | 16 | -1 | 16 | -8
O=C(CSc1nc(O)cc(=O)n1-c1ccccc1)Nc1ccc2c3c(cccc13)CC2 | i | -5 | -2 | 71* | x | 6 | -15 | 69*
COc1ccccc1OCCNC(=O)c1cccs1 | x | 7 | 4 | 8 | -9 | x | -13 | -5
COc1ccc(CN(C)C(=O)c2ccc(OCC(=O)N3CCOCC3)c(OC)c2)cc1 | x | -3 | -1 | x | x | 3 | 0 | x
CCc1c(O)nc(SCC(=O)Nc2ccccc2C)n(-c2ccc(C)cc2)c1=O | i | -4 | 6 | -2 | -16 | 8 | -1 | -6
O=C(COc1ccc(C2SCCS2)cc1)Nc1ccc(Cl)cc1 | i | 0 | -8 | -2 | 2 | -4 | x | 2
CC(C)c1ccc(S(=O)(=O)N2CCC(C(=O)NCc3ccco3)CC2)cc1 | x | 3 | -7 | x | x | 56* | -12 | x
Cc1c(OCC(=O)N2C[C@H]3C[C@@H](C2)c2cccc(=O)n2C3)ccc2c3c(c(=O)oc12)CCCC3 | i | -5 | -4 | -10 | -12 | x | -11 | 4
c1csc(C2CCCN2c2nc3nonc3nc2NC2CC2)n1 (stereo unspecified) | i | -1 | 2 | 8 | -23 | 2 | -9 | 11
CCCc1nc2ccc(Cl)cn2c1Cc1ccccc1OC | x | 0 | -9 | x | x | 14 | -4 | x
CCOC(=O)N1CCN(S(=O)(=O)c2ccc(C(=O)Nc3nc4c(s3)CC(C)CC4)cc2)CC1 (stereo unspecified) | i | -3 | -5 | -11 | -8 | -7 | -20 | 0
CCc1cc(C)cc(OCCOc2ccccc2/C=N/NC(C)=O)c1 | i | 3 | -5 | 5 | 41 | 7 | -13 | -3
CC1(C)CC(=O)C2=C(C1)N(Cc1ccc(F)cc1)C(=O)C2(NC(=O)c1cccnc1)C(F)(F)F (stereo unspecified) | i | -2 | -8 | -10 | -4 | -73 | -4 | -11
CC1(c2ccccc2Cl)NC(=O)N(CC(=O)Nc2ccccc2OC(F)F)C1=O (stereo unspecified) | i | 1 | 2 | 2 | -5 | 23 | -1 | 0
CCOC(=O)N1CCN(CC(O)c2ccccc2)CC1 (stereo unspecified) | i | -7 | -1 | 5 | -15 | 6 | x | 9
CC(=O)Nc1ccc2nc(CN3CCN(Cc4ccc(F)cc4)C(CCO)C3)ccc2c1 (stereo unspecified) | i | -2 | 4 | 0 | -3 | 11 | -8 | -5
O=C(NC1CCSc2ccccc21)c1ccc(F)cc1 (stereo unspecified) | i | x | x | -6 | x | 2 | -11 | -3
O=S(=O)(CCS(=O)(=O)c1ccccc1)c1ccccc1 | x | 4 | 3 | x | x | -3 | 24 | x
N/C(=N\OC(=O)c1ccc(Cl)cc1)c1ccccn1 | i | 0 | -4 | 5 | x | -87 | -92 | 1
COc1ccc(S(N)(=O)=O)cc1C(=O)OCC(=O)N1CCCC(C)C1 (stereo unspecified) | x | -2 | 1 | x | -21 | -15 | -10 | x
